HSV replic up = HSV replication enhancement. HSV replication augmentation in cells, fold increase. maximum fold increase. 220,000 tested, 0.005% active;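 active = peak rise of 1.5-fold or more in the series; tested in PC3 cells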;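 note: first round at 10 µM; read as green reporter fluorescence; hits show the peak of a series up to 25 µM; 1 = signal of infected wells without compound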
GALR2 ag = agonists of human galanin receptor 2 (GALR2); activation, %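 (tested at 5 µM)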; O43603; GALR2-expressing cells, agonist activation read-out; 140,000 tested, 0.48% active; AID 803;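 active = above mean plus 3 SD of all compounds, about 5% in these data, not always enough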;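 note: 0% = vehicle buffer wells and 100% = reference agonist at full effect; tested in CHO reporter cells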
Target sequence (O43603 whole entry, looked up): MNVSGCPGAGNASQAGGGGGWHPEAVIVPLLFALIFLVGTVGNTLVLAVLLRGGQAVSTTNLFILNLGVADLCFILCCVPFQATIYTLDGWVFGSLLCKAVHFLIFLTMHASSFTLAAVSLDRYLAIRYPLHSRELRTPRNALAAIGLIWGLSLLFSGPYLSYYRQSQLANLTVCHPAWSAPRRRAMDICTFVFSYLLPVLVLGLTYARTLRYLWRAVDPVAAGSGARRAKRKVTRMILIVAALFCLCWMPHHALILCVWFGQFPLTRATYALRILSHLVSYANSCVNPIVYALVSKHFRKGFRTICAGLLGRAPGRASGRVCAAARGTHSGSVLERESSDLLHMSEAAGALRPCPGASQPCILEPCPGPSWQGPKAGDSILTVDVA
PKD1 kinase inh = blocks activity of human protein kinase D1 | PKD1 kinase fluorescence polarization assay | inhibition, %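 (about 10 µM by stock and volumes)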 | 200,000 tested, 0.056% active | AID 797;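 active = inhibition of 50% or more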;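 note: controls were vehicle for no effect and a reference inhibitor for full effect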
RGS16-Gao = RGS16-Galphao interaction regulator (human) | 220,000 tested, 0.38% active | bead-based flow cytometry RGS16-Galphao binding, fluorescence; actives lie on both sides | O15492+P09471 | AID 1441 | binding response (% of control), % at 10 µM;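 active = below 25% or above 175%, edge rows of some plates excepted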;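 note: Galphao activated by GDP with aluminum fluoride before binding; 100% = wells without compound and 0% = beads without RGS; some results beyond the cut were filed as inactive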
Target sequence (O15492 whole entry, looked up): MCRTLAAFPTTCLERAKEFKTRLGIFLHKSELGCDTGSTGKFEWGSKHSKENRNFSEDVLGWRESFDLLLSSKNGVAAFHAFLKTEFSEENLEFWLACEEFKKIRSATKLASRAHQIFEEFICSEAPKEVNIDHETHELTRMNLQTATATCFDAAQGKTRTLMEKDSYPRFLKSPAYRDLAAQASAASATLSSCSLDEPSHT
Target sequence (P09471 whole entry, looked up): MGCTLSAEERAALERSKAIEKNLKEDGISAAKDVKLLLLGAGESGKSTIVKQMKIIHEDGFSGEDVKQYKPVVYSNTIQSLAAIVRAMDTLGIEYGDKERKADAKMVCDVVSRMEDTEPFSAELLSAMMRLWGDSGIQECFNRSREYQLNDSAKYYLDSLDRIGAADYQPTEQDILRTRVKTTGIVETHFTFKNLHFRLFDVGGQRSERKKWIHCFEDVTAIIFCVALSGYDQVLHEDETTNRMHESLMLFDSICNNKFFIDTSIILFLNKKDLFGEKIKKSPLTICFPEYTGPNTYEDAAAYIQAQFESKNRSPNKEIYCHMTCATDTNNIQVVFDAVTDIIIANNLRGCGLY
INS promoter inh = TRM-6 insulin promoter activity inhibition. TRM-6 cells (human fetal islet line), insulin promoter-eGFP reporter, imaging; reporter expression induced with tamoxifen. inhibition, % at 2 µM. AID 1273. 130,000 tested, 0.9% active;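 active = inhibition above the mean plus 3 SD, with well images judged a real hit on visual review, cut at about 60% in these data, passing the limit was not always enough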
INS promoter inh cell count = further read-out of INS promoter inh, marked with its call; normalized cell count, %; measured here: cell count, toxicity; reference of the scale not given here;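 cells exposed to compound for 48 h; stained nuclei by imaging scaled within each plate; lower means fewer cells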
HSV replic up primary fold = second read-out of HSV replic up, no call of its own (marks repeat the call); fold increase; compound at 10 µM; measured here: primary screen fold increase 10 uM; tested in PC3 cells;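 GFP signal in the first replicate; 1 = infected wells without compound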
Numbers without * were called inactive; i = inactive; x = no result given.

The first 6 entries as a preview:
SMILES	HSV replic up	HSV replic up primary fold	GALR2 ag	PKD1 kinase inh	RGS16-Gao	INS promoter inh	INS promoter inh cell count
COc1cccc(-c2nnc(SCC3CNC(=O)O3)n2-c2ccc(Cl)cc2)c1 (centres undefined)	i	1.1	0.7	7	107	x	x
C=CCn1c(CCNC(=O)c2cccs2)n[nH]c1=S	i	0.99	-1.1	-9	98	31	101
O=[N+]([O-])c1ccc2c(c1)nc1n2CCSC1	i	0.73	x	x	107	x	x
N#Cc1cc2c(nc1SCc1ccccc1)CCCC2	i	1	0.7	1	99	-17	141
NC(=O)CC(NC(=O)Cc1cccc2ccccc12)c1ccc(NC2CCCCCCC2)c([N+](=O)[O-])c1 (centres undefined)	i	0.8	x	x	101	x	x
COc1ccc(C(=O)/C=C/c2cccs2)c(OC(=O)N2CCOCC2)c1	i	0.89	0.0	-5	103	x	x

Results, from the start:
SMILES	HSV replic up	HSV replic up primary fold	GALR2 ag	PKD1 kinase inh	RGS16-Gao	INS promoter inh	INS promoter inh cell count
COc1cccc(-c2nnc(SCC3CNC(=O)O3)n2-c2ccc(Cl)cc2)c1 (centres undefined)	i	1.1	0.7	7	107	x	x
C=CCn1c(CCNC(=O)c2cccs2)n[nH]c1=S	i	0.99	-1.1	-9	98	31	101
O=[N+]([O-])c1ccc2c(c1)nc1n2CCSC1	i	0.73	x	x	107	x	x
N#Cc1cc2c(nc1SCc1ccccc1)CCCC2	i	1	0.7	1	99	-17	141
NC(=O)CC(NC(=O)Cc1cccc2ccccc12)c1ccc(NC2CCCCCCC2)c([N+](=O)[O-])c1 (centres undefined)	i	0.8	x	x	101	x	x
COc1ccc(C(=O)/C=C/c2cccs2)c(OC(=O)N2CCOCC2)c1	i	0.89	0.0	-5	103	x	x
NC(=O)C1CCN(C(=O)CN2CCc3ccccc32)CC1	i	0.95	-1.8	-1	99	9	152
CCN(CC)S(=O)(=O)c1ccc(NC(=O)Cn2c(=O)oc3ccccc32)cc1	i	1	-2.5	1	104	x	x
CCOC(=O)C1CCN(C(C(=O)Nc2ccc3c(c2)OCCO3)c2ccccc2)CC1 (centres undefined)	i	0.92	0.3	0	101	-21	132
COc1cc2c(cc1OC)C(c1cccs1)N(C(=O)c1ccc(S(=O)(=O)N(C)C)cc1)CC2 (centres undefined)	i	0.83	x	x	110	x	x
Cc1nn(CCc2nc(-c3ccco3)cs2)c2[nH]c(=O)cc(C(F)(F)F)c12	i	0.99	-1.1	-1	68	x	x
CN1CCc2ccccc2C1C1CCNCC1 (centres undefined)	i	0.68	-2.8	-7	57	-6	105
O=C1CC(N2CCOCC2)C(=O)N1c1cccc(Cl)c1 (centres undefined)	i	0.9	-3.5	-9	100	-43	123
CC1C=CCC2C(=O)N(c3cccc(C(=O)N4CCN(c5ccc(F)cc5)CC4)c3)C(=O)C12 (centres undefined)	x	x	-3.8	0	105	x	x
Cc1ccc(C)c(S(=O)(=O)C(C#N)c2nc3ccccc3nc2N2CC(C)OC(C)C2)c1 (centres undefined)	i	0.99	-2.3	-1	105	-41	167
CC1CCN(S(=O)(=O)N2CCC(C(=O)NCCN3CCOCC3)CC2)CC1	i	1.1	-0.2	-5	108	26	76
Cc1ccc(C(C)C)c(OCCn2c(=O)oc3ccccc32)c1	i	1	0.0	-4	104	20	93
Cc1ccc(NCCC(=O)c2cccc([N+](=O)[O-])c2)cc1	i	0.95	-1.9	-3	97	54	76
COc1ccc(OC)c(NC=C2C(=O)OC(C)(C)OC2=O)c1	i	1.1	-0.8	1	100	-47	96
C=CCOc1ccc2c(c1)c(S(=O)(=O)c1ccc(C)cc1)cn2COC	i	0.87	-2.5	-2	89	0	38
CCN(C(=O)COC(=O)c1cccnc1Nc1ccccc1F)C1CCS(=O)(=O)C1 (centres undefined)	i	0.99	0.0	2	116	-67	119
CC1=CC(=C(C#N)c2nc3ccccc3s2)C=C(C)N1CC1CCCO1 (centres undefined)	i	0.98	x	-3	101	x	x
N#C/C(=C\Nc1ccc2c(c1)OCCO2)c1nc2ccccc2[nH]1	i	0.86	-0.6	-8	73	-117	96
COC(=O)/C(C#N)=C/c1ccc(-c2ccc(S(N)(=O)=O)cc2)o1	i	0.98	x	x	99	x	x
COc1cccc(C2C(C(=O)OC(C)C)=C(C)Nc3ncnn32)c1 (centres undefined)	i	1.1	-1.6	6	106	x	x
CCCCC(C(=O)O)C(C)CC(=O)Nc1ccn(-c2ccccc2)n1 (centres undefined)	i	0.89	-2.2	-12	97	27	104
O=c1c2c3c(sc2n(CCN2CCCCC2)c(=O)n1Cc1ccco1)CCCCC3	i	1.1	0.4	-2	148	-11	76
CCCc1cc(C(=O)N/N=C/c2ccc(CC)s2)c2ccccc2n1	i	0.5	-2.2	-7	97	29	124
N#Cc1nc(-c2ccc(F)cc2)oc1NCc1ccco1	i	1.1	x	x	100	x	x
Cc1ccc(-c2nc3ccccc3c(C(=O)NCc3cccs3)c2C)cc1	i	0.89	1.0	1	102	41	58
Cc1nn(CCCC(=O)N2CCN(c3ccc(F)cc3)CC2)c(C)c1[N+](=O)[O-]	i	0.93	x	-3	15*	-100	112
Cc1ccccc1C(=O)NC(=S)Nc1ccccc1C(=O)O	i	0.94	x	-11	96	x	x
O=C(CS(=O)c1ccc(C(F)(F)F)cc1[N+](=O)[O-])Oc1ccccc1 (centres undefined)	i	0.33	-1.6	-3	103	17	60
CCCC(c1nnnn1C(C)(C)CC)N(CCCO)Cc1cc2cc(C)cc(C)c2[nH]c1=O (centres undefined)	i	0.8	-0.8	6	103	-93	109
COc1ccc(OC)c(C(C)NC(C)=O)c1 (centres undefined)	i	0.86	-1.5	-9	98	x	x
COc1ccc(CN2CCN(CCCc3ccccc3)CC2)c(OC)c1	i	0.97	x	-2	101	x	x
COc1ccc(-c2nc3ccccn3c2/N=C/c2ccc(OC)c(OC)c2)cc1O	i	0.91	-0.7	-11	94	-26	110
CN(C)CCCCOc1ccccc1-c1ccccc1	i	0.79	-2.6	-9	103	-9	82
COc1ccc(C2N(Cc3ccccc3)CC(=O)N2/N=C(\C)c2ccccc2)cc1 (centres undefined)	i	1	-1.0	-15	110	-86	39
COc1ccccc1NS(=O)(=O)c1ccc2oc(=S)[nH]c2c1	i	1.1	x	x	103	x	x
S=c1[nH]nc(-c2cccnc2)n1C1CCCCC1	i	0.98	0.2	-7	108	11	130
Cc1cc(=O)oc2c(N)c(O)ccc12	i	0.97	-0.8	-2	102	x	x
c1cncc(-c2nc3ccccc3s2)c1	i	0.96	x	x	102	x	x
O=C(NCc1ccccc1)c1ccc(S(=O)(=O)N2CCCC2)cc1	i	0.83	0.0	-2	102	-14	67
COC(=O)Cn1c(C)nc2ccccc21	i	0.92	-1.1	7	117	6	87
CC(C)(C)C(=O)NC(C(N)=O)=C(Cl)Cl	i	0.94	-2.1	10	107	0	76
CCn1cnc2c1c(=O)n(CC(=O)NCC(F)(F)F)c(=O)n2Cc1ccccc1	i	0.89	x	0	99	x	x
CSc1nc(Oc2ccc(F)cc2)c2ccccc2n1	i	0.86	-2.1	12	94	23	57
CN1C(=O)/C(=C2\SC(N3CCCCCC3)=NC2=O)c2ccccc21	i	0.73	-0.5	8	103	14	75
CCOc1ccc(C(=O)NCC(c2cccs2)N(C)C)cc1OCC (centres undefined)	i	1.2	-0.6	-8	157	41	127
COc1cc(C2C3=C(CCCC3=O)Nc3c2c(C)nn3-c2cccc(C)c2)cc(OC)c1O (centres undefined)	i	0.88	x	x	105	x	x
NC(=O)CSc1nnnn1-c1cccc(Cl)c1	i	0.94	0.6	-5	103	19	178
COc1ccc(S(=O)(=O)N2CCCC2C(=O)Nc2nccs2)cc1 (centres undefined)	i	1	0.1	-5	96	-49	124
CC(C)OCCCn1c(=N)c(C(N)=S)cc2c(=O)n3ccccc3nc21	i	1	3.3	-6	89	x	x
Cc1ccc2c(c1)C(=O)C(=O)N2CCOc1ccccc1	i	0.83	x	0	105	x	x
CCN(CC)S(=O)(=O)c1ccc2oc(C(=O)N3CCCCCC3)c(C)c2c1	i	0.76	-1.3	-8	104	4	92
O=C(Oc1cc(=O)oc2ccccc12)c1cccnc1Cl	i	0.92	-1.0	-14	106	-54	59
CCOc1ccccc1Nc1nnc(SCC(=O)NC(Cc2c[nH]c3ccccc23)C(=O)O)s1 (centres undefined)	i	0.61	x	3	115	x	x
CCCCNC(=O)CSc1nnc(-c2c[nH]c3ccccc23)n1CC1CCCO1 (centres undefined)	i	1.2	-1.2	-5	102	-17	90
COc1cccc(-n2c(C)nc3c(cnn3-c3ccc(Cl)cc3)c2=O)c1	i	0.96	-2.5	-6	102	5	143

(cont.)
SMILES	HSV replic up	HSV replic up primary fold	GALR2 ag	PKD1 kinase inh	RGS16-Gao	INS promoter inh	INS promoter inh cell count
Cc1cc(=O)n2nc(N3CCCC(C(=O)NC(C)c4ccccc4)C3)sc2n1 (centres undefined)	i	0.78	-2.0	3	97	15	53
CC(C)c1ccc(/C=C2\SC(N3CCCC3)=NC2=O)cc1	i	0.76	-0.7	2	105	-33	83
CCCc1nc2ccc(NC(=O)c3ccco3)cc2c(=O)n1Cc1ccc(Cl)cc1	i	0.87	-0.8	-1	85	56	158
O=c1c2cc(N3CCOCC3)ccc2[nH]c(=S)n1CCN1CCCC1	i	0.7	-1.1	3	99	-41	54
Cc1ccc(Cn2ccc(NC(=O)c3cc(-c4cccs4)on3)n2)cc1	i	0.83	-1.9	-11	103	x	x
C#CCn1c(=NC(=O)c2cc(Cl)sc2Cl)sc2cc(S(N)(=O)=O)ccc21	i	0.83	-1.0	4	97	-44	66
COc1ccc(NC(=O)C(=O)NCCN2CCN(C(=O)c3cccs3)CC2)cc1	i	0.95	-1.0	-6	97	61	51
COc1ccc(-c2nc3ccccc3n2OC(C)C(=O)O)cc1 (centres undefined)	i	1.1	x	7	94	x	x
CCOc1ccc(C(=O)Nc2c(C(N)=O)oc3ccccc23)cc1	i	1	-0.3	-9	92	-381	42
COc1ccc(Cl)cc1NC(=O)CNc1ccc(F)cc1C	i	1	-0.1	-9	101	x	x
Cc1nn(-c2ccccc2[N+](=O)[O-])c(=O)c2ccccc12	i	0.96	x	7	92	x	x
CC/C(Cc1ccccc1)=N/NC(=O)CCn1nnc2ccccc21	i	0.94	x	1	98	-107	93
O=C1NC(c2ccccc2)=C(c2nc3ccccc3s2)C(c2ccc(F)cc2)N1 (centres undefined)	i	1.1	1.6	-1	118	8	99
CC1CCCC(C(=O)OCc2ccccc2)N1 (centres undefined)	i	0.98	-1.9	-4	99	48	68
CCCCN(CC)S(=O)(=O)c1ccccc1	i	0.92	-3.5	-4	98	33	95
O=C(N/N=C/c1ccccn1)c1ccc(Br)o1	i	0.95	-4.6	-10	100	-6	99
CC1CC2(CCCCC2)N2C(=O)C(=O)c3cccc1c32 (centres undefined)	i	1.1	0.7	1	28	-11	91
Cn1c(=O)c2c(SCC(=O)N3CCCc4ccccc43)nc(C3CC3)nc2n(C)c1=O	i	0.96	-2.2	-13	102	x	x
N#Cc1c(NCCCO)nc(-c2ccccc2)c2c1CCCC2	i	0.97	3.3	-5	97	0	101
CC(=NCc1ccccc1)C1=C(O)COC1=O	i	0.89	-0.4	7	102	x	x

Ordered by SMILES length (low to high): three of the compounds above.
SMILES	HSV replic up	HSV replic up primary fold	GALR2 ag	PKD1 kinase inh	RGS16-Gao	INS promoter inh	INS promoter inh cell count
CC(=NCc1ccccc1)C1=C(O)COC1=O	i	0.89	-0.4	7	102	x	x
COc1ccc(-c2nc3ccccc3n2OC(C)C(=O)O)cc1 (centres undefined)	i	1.1	x	7	94	x	x
O=c1c2cc(N3CCOCC3)ccc2[nH]c(=S)n1CCN1CCCC1	i	0.7	-1.1	3	99	-41	54

The results go on:
SMILES	HSV replic up	HSV replic up primary fold	GALR2 ag	PKD1 kinase inh	RGS16-Gao	INS promoter inh	INS promoter inh cell count
COc1ccc(-c2cc(C(=O)NCCc3ccccc3)no2)cc1OC	i	0.75	-0.5	-3	79	23	159
Cc1nnc(NC(=O)CSc2nc3c(c(=O)n2CCc2ccccc2)SC(C)C3)s1 (centres undefined)	i	0.93	-0.4	-6	102	x	x
O=Cc1ccc(OCC(=O)Nc2ccccc2C(F)(F)F)cc1	i	1.1	x	-2	98	x	x
N#Cc1cnn2c(-c3ccc(Cl)cc3Cl)ccnc12	i	0.99	x	-6	102	-43	116
Cc1ccc(SCCC(=O)N2CCCC2)cc1	i	0.97	-4.0	-1	-6	x	x
Cc1ccc(-n2c(C)cc(C(=O)CSc3nnc4ccccn34)c2C)cc1	i	1.1	0.4	-2	101	x	x
